OX1R FRET antag – antagonists of human orexin 1 receptor (OX1R); Orexin/Hypocretin receptor type 1 (Homo sapiens), O43613; OX1R-expressing cells, FRET antagonist read-out; inhibition, % at 6.6 µM; 330,000 compounds, 1.8% hits; AID 485270, 2010; in the data active means inhibition mostly above about 38%, no sharp cut-off; inactive means mostly below about 40%;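 further: 0% = agonist challenge alone and 100% = reference antagonist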
Target sequence (O43613 whole entry, looked up): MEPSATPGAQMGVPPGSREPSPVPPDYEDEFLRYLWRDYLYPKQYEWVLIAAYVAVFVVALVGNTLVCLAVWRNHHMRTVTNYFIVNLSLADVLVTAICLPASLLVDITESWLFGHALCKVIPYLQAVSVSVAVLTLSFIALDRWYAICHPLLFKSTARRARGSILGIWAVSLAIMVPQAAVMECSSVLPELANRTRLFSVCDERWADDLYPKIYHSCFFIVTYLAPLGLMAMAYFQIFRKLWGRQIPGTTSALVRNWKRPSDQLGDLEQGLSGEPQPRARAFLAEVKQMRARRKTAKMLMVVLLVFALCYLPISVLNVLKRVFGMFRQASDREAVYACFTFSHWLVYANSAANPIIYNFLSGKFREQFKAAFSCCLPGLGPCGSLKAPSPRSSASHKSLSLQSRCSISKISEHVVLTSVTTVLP
Active calls of the source: *; & = joins results of further samples. This is a subset; most or all hits stand in other tables.

SMILES	OX1R FRET antag
CC1Cc2ccccc2N1C(=O)C1CCCN1S(=O)(=O)c1ccc(Cl)cc1 (configuration not stated)	-1
O=C(c1cc(-c2ccccn2)nc2c(Cl)cccc12)N1CCN(C(=O)C2CCCO2)CC1 (configuration not stated)	-2
O=C(Nc1ccnn1C1CCN(C2CCCC2)CC1)c1ccccc1	20
NC(CO)C(O)c1ccc([N+](=O)[O-])cc1 (configuration not stated)	23
CCOC(=O)c1ccc(CC(=O)c2ccc(O)cc2O)o1	7
COC(=O)c1nn(-c2ccc(OC)cc2)c(=O)cc1Oc1cccc(Cl)c1	4
COc1ccc(/C=C/C(=O)Oc2cccc(/C=N/NC(=O)COc3c(C)cccc3C)c2)cc1	13
Cc1cc(C)c(NC(=O)COC(=O)/C=C/c2cccc(C(F)(F)F)c2)c(C)c1	6
O=C(COc1cccc2ccccc12)N/N=C/C=C/c1ccccc1	8
COc1ccc(-n2c(SCC(=O)N(C)c3ccccc3)nc3c([nH]c4ccccc43)c2=O)cc1OC	5
Cc1ccc(S(=O)(=O)Nc2ccc(C(=O)Nc3cc(C)on3)cc2)cc1	13
Cc1cccc2cc3cccc(C)c3nc12	1
CCOc1ccccc1N(CC(=O)NC(C)(C)C)C(=O)CCC(=O)Nc1nccs1	8
O=c1c2ccccc2nnn1CSc1nnc(-c2cccc(S(=O)(=O)N3CCCCC3)c2)o1	9
CCOc1cc(OCC)cc(C(=O)NC(=S)Nc2cccc(C(F)(F)F)c2)c1	19
NC1=NN=C(c2ccc3c(c2)OCCO3)CS1	36
COc1ccccc1C1C2=C(CC(C)(C)CC2=O)Nc2nnnn21 (configuration not stated)	10
C=CCn1c(-c2ccc(OC)c(OC)c2)n[nH]c1=S	35
COc1ccc(-c2cc(N)n(S(=O)(=O)c3ccc(F)cc3)n2)cc1OC	13
O=C(O)CCCNc1c(C(=O)Nc2ccc(Cl)cc2)cc([N+](=O)[O-])cc1[N+](=O)[O-]	44
c1csc(-c2cnc3ccccc3n2)c1	30
CCCc1cc(=O)[nH]c(SCC(=O)NCCCC(=O)OCC)n1	21
Cc1ccc(S(=O)(=O)NC(C)(C)C)cc1C(=O)OC(C)C(=O)NC1CC1 (configuration not stated)	30
CC1CN(C(=S)Nc2ccccc2C(F)(F)F)CC(C)O1 (configuration not stated)	4

7 records picked at random from the list so far, as already listed:
SMILES	OX1R FRET antag
C=CCn1c(-c2ccc(OC)c(OC)c2)n[nH]c1=S	35
O=c1c2ccccc2nnn1CSc1nnc(-c2cccc(S(=O)(=O)N3CCCCC3)c2)o1	9
CCCc1cc(=O)[nH]c(SCC(=O)NCCCC(=O)OCC)n1	21
CC1CN(C(=S)Nc2ccccc2C(F)(F)F)CC(C)O1 (configuration not stated)	4
CCOc1ccccc1N(CC(=O)NC(C)(C)C)C(=O)CCC(=O)Nc1nccs1	8
COc1ccc(-c2cc(N)n(S(=O)(=O)c3ccc(F)cc3)n2)cc1OC	13
NC1=NN=C(c2ccc3c(c2)OCCO3)CS1	36

Next part:
SMILES	OX1R FRET antag
COCc1cc(C)nc(NCCO)c1C#N	21
CCCC(C(=O)NCc1ccco1)N(C(=O)CNS(=O)(=O)c1ccccc1)c1ccccc1OC (configuration not stated)	12
COc1ccc(NC(=S)NCCNC(C)=O)cc1	11
COc1ccc(OC)c(/C=C/c2nc3ccccc3[nH]c2=O)c1	17
COC(=O)C1=C(C)N(c2ccc(F)cc2)/C(=C/c2ccc(O)cc2)C1=O	5
O=c1oc2ccccc2c(Nc2ccc(O)cc2)c1[N+](=O)[O-]	33
CCOc1cc(/C=N/NC(=O)c2cccnc2)ccc1OC(=O)c1ccco1	29
O=C(c1ccco1)N1CCN(S(=O)(=O)c2ccc(Br)cc2)CC1	7
Cn1nc(C(F)(F)F)c(-c2ccccc2)c1NC(=O)CSCC(=O)O	4
CC(Sc1nnnn1C)C(=O)Nc1ccccc1 (configuration not stated)	9
C[C@]12C=CC(=O)C=C1CC[C@@H]1C2=CC[C@]2(C)[C@@H](C(=O)CN3CCN(c4cc(N5CCCC5)nc(N5CCCC5)n4)CC3)CC[C@@H]12	8
CCOC(=O)C1CCCN(c2c(Nc3cc(C)cc(C)c3)c(=O)c2=O)C1 (configuration not stated)	15
O=C(COC(=O)c1ccncc1)NCCCc1ccccc1	15
O=C1CS(=O)CN1c1ccc(Oc2ccccc2)cc1 (configuration not stated)	6
Cc1ccc(-c2nn(CC(=O)O)c(=O)c3ccccc23)cc1	8
CC(=O)Cc1nsc(Nc2ccc(C)cc2)n1	8
CCOCCCNC(=S)Nc1ccc2nc(N3CCOCC3)cc(C)c2c1	8
Cc1ccc(S(=O)(=O)N2CCOCC2)cc1C(=O)NCCCn1ccnc1	18
N#Cc1cncc(C#Cc2ccccc2)c1	4
CCOc1ccccc1-n1c(SCC(=O)N2CCCc3ccccc32)nnc1-c1cccnc1	58
COc1cccc(C(=O)C2CCCN(Cc3cccn3-c3cccnc3)C2)c1 (configuration not stated)	16
O=C(N/N=C/c1ccncc1)/C(=C/c1ccccc1)NC(=O)c1ccccc1	12
O=C(c1ccc(C(=O)N2CCCCCC2)cc1)N1CCCCCC1	5
O=C1CN(S(=O)(=O)c2ccc(Cl)cc2)c2ccccc2N1	5
O=C(O)c1ccc(-n2nc(C(F)(F)F)c3c2CCCC3)cc1	7&18
Cc1noc(NS(=O)(=O)c2ccc(N/C=C\C(=O)c3ccncc3)cc2)c1C	16
Cn1c(C(=O)N2CCOCC2)cnc1Sc1ncc(C(F)(F)F)cc1Cl	24
COc1ccc(CCNC(=O)C2CCN(C(=O)c3ccc(Br)cc3)CC2)cc1	4
FC(F)(F)c1cccc(-c2ccc(-c3csnn3)o2)c1	17
CCn1c(COc2cccc3cccnc23)nnc1SC(F)F	1
Cc1ccc(CNc2ncccc2-c2nc3cc(Cl)ccc3o2)cc1	2
CCOC(=O)N1CCN(C(=O)c2cnc3n(c2=O)CCS3)CC1	18
O=C(N/N=C/c1cccc([N+](=O)[O-])c1)C1COc2ccccc2O1 (configuration not stated)	42
O=C(NCc1nnc(SCC(=O)N2CCc3ccccc32)o1)c1cccs1	8
CCOC(=O)c1c(C)n(C)c2cc(-c3cccc(C(F)(F)F)c3)c(O)cc12	23
CCCCn1nc2cc(C(=O)NCc3ccco3)ccc2c1OCC	0
O=C(NCc1ccncc1)Nc1cccc([N+](=O)[O-])c1	32
CC(NC(=O)CCN1N=C(c2ccccc2)CCC1=O)c1ccc2c(c1)OCCO2 (configuration not stated)	1
O=S(=O)(NNc1ccc(Cl)nn1)c1ccc(F)cc1	13
Cc1nc(CS(=O)(=O)c2ccccc2)cc(Sc2ccccc2Cl)n1	66
Cc1ccc2nc(SCC(=O)NNC(=O)c3ccccc3)[nH]c2c1	19
O=C1CCCc2sc3c(c2N1)CCCCC3	17
CCOC(=O)CC(=O)CSc1nc2sc(C)cc2c(=O)n1Cc1ccco1	1
CCCCCCCNC(=O)C1(CC2CC(c3ccc(Cl)cc3)=NO2)CCN(C(=O)C2(C)CC2)CC1 (configuration not stated)	13
CCOc1ccc(C2/C(=C(/O)c3ccc(OC)cc3)C(=O)C(=O)N2c2cc(C)on2)cc1OC (configuration not stated)	26
CCOc1cc(/C=C2\SC(=S)N(N3CCOCC3)C2=O)ccc1O	20
O=C(NCc1ccc(F)cc1)C1CCN(S(=O)(=O)c2cccc3nonc23)CC1	17
Cn1c(=O)c(C(=O)N2CCc3ccccc32)cc2cccnc21	5
CCOC(=O)N1CCN(c2ccnc3cc(Cl)ccc23)CC1	16
O=C(NC(CC(=O)N1CCN(c2ccccc2)CC1)c1ccccc1)c1ccccc1Cl (configuration not stated)	12
COC(=O)c1sccc1NC(=S)N1CCN(c2ccccc2F)CC1	15
CC1CCN(C(=S)c2cccc(O)c2)CC1	24
CCN1C(=O)c2cccc3c(NC(=O)C4CCCCC4)ccc1c23	21
O=Cc1ccc(-c2ccc(C(=O)O)cc2)o1	26
O=C(O)Cn1c(-c2ccccc2)nc2ccccc21	8
Cc1cc(NS(=O)(=O)c2ccc(NC(=O)C(c3ccccc3)c3ccccc3)cc2)no1	19
CCN1C(=O)N[C@@H](c2ccccc2)[C@H](C(C)=O)[C@H]1C	13
Cc1cc(C(=O)COC(=O)CN(C)S(=O)(=O)c2ccc(Cl)cc2)c(C)n1CC1CCCO1 (configuration not stated)	31
CCOC(=O)/C(C#N)=C/Nc1cc(C(C)(C)C)sc1C(C)=O	18
Cc1cccc(C(=O)OCC(=O)NC(C)CCc2ccccc2)c1 (configuration not stated)	10

Next part:
SMILES	OX1R FRET antag
COc1ccccc1C1=NOC(Cn2c(NCC3CCCO3)nc3c2c(=O)n(C)c(=O)n3C)C1 (configuration not stated)	10
O=C(/C=C/c1ccccc1)Oc1ccccc1C(=S)N1CCOCC1	16
CCS(=O)(=O)c1nnnn1-c1ccccc1S(C)(=O)=O	5
O=C(CCCCn1c(=O)[nH]c2ccsc2c1=O)NCc1cccnc1	18
CCOC(=O)C(=CNc1ccc(O)c(C(=O)OC)c1)C(=O)OCC	20
CC(=O)c1cccc(N(CC(=O)NCC2CCCO2)C(=O)CCC(=O)Nc2cc(C)on2)c1 (configuration not stated)	0
CC(C)CCn1nnnc1CN1CCN(C(=O)c2ccco2)CC1	4
O=C(COc1ccc(Br)cc1Br)NN1C(=O)c2ccccc2C1=O	6
O=C(Nc1cccn2ncnc12)c1ccc(Cl)cc1Cl	13
O=C(CSc1nc2ccccc2s1)Nc1ccc(Cl)c(S(=O)(=O)N2CCOCC2)c1	18
COc1ccc(CCNC(=O)CN(C)S(=O)(=O)c2cccc3nsnc23)cc1OC	31
CC(Cc1cccs1)NC(=O)Nc1ccc([N+](=O)[O-])cc1 (configuration not stated)	25
O=C1CCC([N+](=O)[O-])C(c2cc(Br)ccc2F)N1 (configuration not stated)	5
CCOC(=O)C1CCN(Cc2cccc(OC)c2)CC1	6
O=C(Nc1cccc(C(=O)N2CCOCC2)c1)c1cccnc1	17
CCOc1ccc(C2CC(c3ccc(F)cc3)Nc3nc(N)nn32)cc1 (configuration not stated)	0
CCn1c(=O)cc(OCC(=O)Nc2cc(C)ccn2)c2ccccc21	5
FC(F)(F)c1cccc(CNC2CCN(Cc3ccccc3)CC2)c1	4
CC1C(=O)N2CCCc3cc(NC(=O)C4CCCCC4)cc1c32 (configuration not stated)	14
O=C(Nc1ccc(Cl)cn1)C1CCN(c2ncnc3c2nc2n3CCCCC2)CC1	32
CC(=O)c1ccc(N2CCN(C(=O)C3CCN(S(=O)(=O)c4ccc5c(c4)CC(C)N5C(=O)C4CC4)CC3)CC2)cc1 (configuration not stated)	1
Cc1c(C)n(C)c2ccc(C(=O)N3CCN(c4ccccc4)CC3)cc12	23
CCCCc1nc2sc3c(=O)[nH]cnc3c2c2c1CCCC2	4
CCOc1ccccc1OCCOc1ccccc1CC	27
COc1ccccc1NC(=O)COC(=O)Cc1ccc(S(=O)(=O)N2CCCCC2)s1	15
CC1(CCC#N)N=C(SCCC#N)N(c2ccccc2)C1=O (configuration not stated)	0
CCN(CC)c1nc(N)c(C#N)c(CC#N)c1C#N	15
Cc1ccccc1CS(=O)(=O)Cc1ccc(C(=O)NCCCN2CCOCC2)o1	3
C=CCCC(=O)N(C)CCO	18
CC(=O)c1ccc(OCCn2cnc3ccccc32)cc1	12
COc1cc(OC)c(C2N(c3ccccn3)C(=O)C3CCCN32)cc1OC (configuration not stated)	15
O=C(NCc1nc(-c2ccccc2)no1)c1cccs1	14
COc1ccc(-c2cc3ccccc3n2CC(O)CNCCO)cc1 (configuration not stated)	18
CN(CCCNC(=O)c1nn(C)c2c1CS(=O)(=O)c1ccccc1-2)Cc1ccccc1	3
OC1(c2ccccc2F)CCN(Cc2nnnn2CCc2ccccc2)CC1	8
COC(=O)Nc1ccc(Cc2ccncc2)cc1	0
Cc1cc(C)c2c(CN3CCN(Cc4ccc5c(c4)OCO5)CC3)cc(=O)oc2c1C	13
O=C(CSc1nccn1Cc1ccco1)Nc1ccc(F)cc1	21
Cc1ccc(S(=O)(=O)N2CCCCC2)cc1NC(=O)COC(=O)c1c(F)cccc1F	4
Cc1ccc(C(=O)N(Cc2cccnc2)Cc2cc3cc(C)ccc3n3nnnc23)cc1	14
O=C(NNC(=O)c1cccs1)Nc1cccc(Cl)c1	30
Cc1cccc(NS(=O)(=O)c2cccc3nonc23)c1	22
Cc1cccc(C)c1NC(=O)c1ccc(-n2cncn2)nc1	-3
COc1ccc(C2=C(C#N)C(=O)OC2)cc1	4
COc1ccccc1NC(=O)CSc1nnc(C2CCCCC2)n1C	11
CC(=O)Nc1ccc(S(=O)(=O)NCCC(=O)OCC(=O)c2ccc(Br)cc2)cc1	15
N#C/C(=C\C1CC2C=CC1C2)c1nc2ccccc2[nH]1 (configuration not stated)	13
Cc1cccc(C)c1NC(=O)Nc1ccc2c(c1)OCO2	13

Ordered by the number under OX1R FRET antag (ascending): 3 from the list above.
SMILES	OX1R FRET antag
CC1(CCC#N)N=C(SCCC#N)N(c2ccccc2)C1=O (configuration not stated)	0
COC(=O)C1=C(C)N(c2ccc(F)cc2)/C(=C/c2ccc(O)cc2)C1=O	5
O=C(NC(CC(=O)N1CCN(c2ccccc2)CC1)c1ccccc1)c1ccccc1Cl (configuration not stated)	12

More results follow.
SMILES	OX1R FRET antag
CCCC(C)NC(=O)/C=C/c1cccc([N+](=O)[O-])c1 (configuration not stated)	34
C=CCNC(=O)COC(=O)COc1ccc(Cl)cc1	24
C=CCNS(=O)(=O)c1ccc(C(=O)OCc2cc(=O)oc3cc(OC)ccc23)cc1	6
CCOc1cc(/C=C2/C(=N)N3N=C(C)SC3=NC2=O)ccc1OS(=O)(=O)c1ccc(C)cc1	8
COc1ccc(OC)c(S(=O)(=O)N(C)CC(=O)N2CCN(c3ccccc3)CC2)c1	20
COc1ccc(C(=O)c2ncc(C(F)(F)F)cc2Cl)cc1	15
CC(C)CC(=O)Nc1sc2c(c1C(=O)O)CCCCC2	13
Cc1ncoc1C(=O)NCc1ccccc1Cl	0
COc1ccccc1NC(=O)CC1S/C(=N/N=C(\C)C2CCCCC2)NC1=O (configuration not stated)	11
COc1ccc(S(=O)(=O)N2CCCCCC2)cc1N(C)S(=O)(=O)c1ccc(Cl)cc1	13

Among those listed so far, these have a tert-butyl group.
SMILES	OX1R FRET antag
CCOc1ccccc1N(CC(=O)NC(C)(C)C)C(=O)CCC(=O)Nc1nccs1	8
Cc1ccc(S(=O)(=O)NC(C)(C)C)cc1C(=O)OC(C)C(=O)NC1CC1 (configuration not stated)	30
CCOC(=O)/C(C#N)=C/Nc1cc(C(C)(C)C)sc1C(C)=O	18

Screening results: PubChem BioAssay, The Scripps Research Institute Molecular Screening Center
